# Assay outcomes deposited in PubChem BioAssay by ICCB-Longwood Screening Facility, Harvard Medical School.
# MgrA DNA FP: modulators of Staphylococcus aureus MgrA DNA binding; hit rate 0.13% among 84,000; AID 602314; fluorescence polarization; inhibition, %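 (about 10 µg/mL by stock and volumes)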;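 active means above 50% in either of two replicates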;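 further: 0% = protein plus DNA without compound and 100% = DNA alone without protein; higher means less MgrA bound to DNA so lower polarization; one replicate is shown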
# S aureus helic: blocks Staphylococcus aureus DNA helicase; hit rate 0.05% among 120,000; inhibition, %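 (tested at about 80 µM)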; purified S. aureus helicase, fluorescence unwinding assay; about half of the hits fall short of the stated cut;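 active means both duplicates at 50% or more, or one of them with a favoured structure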;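 further: 0% = mean of negative control wells and 100% = mean of positive control wells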
# An asterisk follows results filed as active; · = not tested or not shown.
SMILES,MgrA DNA FP,S aureus helic
CC(NC(=O)CSc1nnc2c3ccccc3n(C)c2n1)c1ccccc1 (configuration not stated),·,15.0
CCc1ccccc1NC(=O)Cn1ncc2c(=O)oc3ccccc3c21,·,4.0
Fc1ccc(-c2ccc(NCc3ccccc3)nn2)cc1,-26.6,8.0
O=C(CSc1ncnc2ccccc12)Nc1ccccc1,·,16.0
Cc1ccc(-n2c(-c3nn(C)cc3Cl)n[nH]c2=S)cc1,0.8,8.0
Cc1coc2cc3oc(=O)c4c(c3cc12)CCCCC4,·,-7.0
Cc1ccc2nc3c(c(N)c2c1)CCN3c1ccccc1,·,-5.0
CC1CC(=O)Nc2ccccc2N1 (configuration not stated),-2.2,·
Cc1c(NC(=O)CN2CCC(C)CC2)c(=O)n(-c2ccccc2)n1C,·,7.0
CC(C)(C)C(=O)N(CCc1ccccc1)Cc1nc2ccccc2c(=O)[nH]1,-0.2,3.0
COc1cc2c(cc1OC)CN(CC(N)=O)CC2,·,5.0
Cc1c(S(=O)(=O)c2ccc(Cl)cc2)csc1C(=O)N(c1ccccc1)S(C)=O (configuration not stated),-2.5,·
CCc1ccc(C2CC(=O)N3CN(c4ccccc4)CSC3=C2C#N)cc1 (configuration not stated),-0.3,9.0
O=C(CCCN1C(=O)NC2(CCCC2)C1=O)Nc1ccc2c(c1)OCCCO2,·,19.0
CCOC(=O)c1cnc2ccccc2c1NCCCN1CCOCC1,·,13.0
CC(C)c1ccc(-c2csc3ncn(N)c(=O)c23)cc1,-4.5,14.0
Cc1ccc(C(=O)NCCc2nnc3ccc(SCC(=O)NC4CCCCC4)nn23)cc1,0.2,0.0
CS(=O)(=O)N1CCCc2ccccc21,-0.6,·
COc1ccc(C2CCCCCN2)cc1 (configuration not stated),·,-9.0
CCOC(=O)/C=C1\CCC=C1N1CCOCC1,·,1.0
Cc1nn(-c2ccccc2)c(C)c1C1NCCNC1=O (configuration not stated),·,-10.0
CCCc1ccc(C(=O)C(C)OC(=O)C2=NNC(=O)CC2)cc1 (configuration not stated),·,44.0
Cc1nccc(-c2c(-c3ccccc3)noc2C)n1,1.8,·
COc1ccccc1CNc1ccc2c(c1)ncn2-c1ccccc1OC,1.8,7.0
Cc1cc(C(=O)COC(=O)c2cc(=O)[nH]c3ccccc23)c(C)n1C,·,10.0
CC(=O)NC(=O)/C(C#N)=C/N1CCN(c2ccccc2)CC1,·,-20.0
c1ccc2c(c1)c1ccccc1n2CN1CCOCC1,0.1,14.0
O=c1sc2ccccc2n1Cc1ccccc1,-1.6,16.0
Clc1ccc(OC2CN(C(c3ccccc3)c3ccccc3)C2)cc1,-2.4,·
COc1ccccc1CNC(=O)c1cccs1,·,-10.0
CCOC(=O)c1cc(C)sc1/N=C/C1C(=O)CCCC1=O,-0.5,1.0
Cc1ccc(-c2noc(=O)n2CC(=O)Nc2ccc(S(=O)(=O)N3CCCC3)cc2)cc1,-1.6,3.0
Nc1nnnn1CC(=O)OCC(=O)Nc1ccccc1,-0.8,-10.0
Cc1nn(Cc2cccc(C(=O)Nc3nc4ccc(S(C)(=O)=O)cc4s3)c2)c(C)c1Cl,1.1,4.0
Cc1cc(N2CCN(C)CC2)ccc1NC(=O)c1ccc(S(=O)(=O)Nc2ccccc2F)cc1,·,4.0
COc1cccc(N2C(=S)NC3c4ccccc4OC2(C)C3C)c1 (configuration not stated),1.8,0.0
NC(=S)N/N=C(/C(=O)c1ccccn1)c1ccccn1,·,3.0
COC(=O)C1=CN(c2ccc(F)cc2)C=C(C(=O)OC)C1c1cccc(O)c1,2.0,13.0
NC(=O)c1csc(-c2ccc(F)cc2F)n1,0.2,·
Cc1ccc(C(=O)CC2(O)C(=O)N(CN3CCCCC3)c3ccc(Br)cc32)cc1 (configuration not stated),2.7,·
CC(C)(C)S(=O)(=O)c1cnc(N2CCCCC2)nc1N,-0.8,·
Cc1ccc(N(CC(=O)Nc2cccc(C)c2)S(=O)(=O)c2c(C)n[nH]c2C)cc1,·,10.0
Cc1[nH]c2ccccc2c1SCCN,·,-1.0
Cc1ccc(NC(=O)Cn2nnc(-c3ccccc3)n2)cc1,0.9,-10.0
COc1ccc(CC#N)cc1OC,·,5.0

# Reformatted with values ahead of the structure: 5 of the compounds above
MgrA DNA FP | S aureus helic | SMILES
· | 4.0 | Cc1cc(N2CCN(C)CC2)ccc1NC(=O)c1ccc(S(=O)(=O)Nc2ccccc2F)cc1
1.1 | 4.0 | Cc1nn(Cc2cccc(C(=O)Nc3nc4ccc(S(C)(=O)=O)cc4s3)c2)c(C)c1Cl
-1.6 | 3.0 | Cc1ccc(-c2noc(=O)n2CC(=O)Nc2ccc(S(=O)(=O)N3CCCC3)cc2)cc1
-0.5 | 1.0 | CCOC(=O)c1cc(C)sc1/N=C/C1C(=O)CCCC1=O
· | 10.0 | Cc1ccc(N(CC(=O)Nc2cccc(C)c2)S(=O)(=O)c2c(C)n[nH]c2C)cc1

# (listing goes on)
SMILES,MgrA DNA FP,S aureus helic
COc1ccc(C(=O)N=C(N)COc2ccccc2Cl)cc1,-0.1,·
COC(=O)c1ccc(C)c(NC(=O)CC2CCCC2)c1,·,1.0
Nc1cc(=O)[nH]c(S/C=C/c2ccccc2)n1,0.0,-4.0
COC(=O)c1ccccc1NC(=O)C1CCN(S(=O)(=O)c2ccc(OC)c(OC)c2)CC1,·,-14.0
Cc1nc(SCc2ccccc2)nc2c1CCC2,0.8,·
CC(C)NC(=O)CCCc1nnc2n3nc(-c4ccccc4)nc3c3ccccc3n12,·,10.0
CCOc1ccccc1NC(=O)N1CCCN(c2ncccc2C#N)CC1,-2.5,·
Cc1ccc(C)n1-c1nnc(N2CCC(C(=O)NC(C)c3ccc4c(c3)OCCO4)CC2)s1 (configuration not stated),·,18.0
CN1c2ccccc2Sc2cc(C=C(C#N)C#N)ccc21,-3.0,-10.0
CC(C)Cn1c(CCCO)nc2ccccc21,-0.2,-4.0
NNC(=S)Nc1ccc(S(=O)(=O)N2CCCCC2)cc1,-0.1,·
O=C(NCC1CCCO1)c1cc(NS(=O)(=O)c2cccs2)cc(NS(=O)(=O)c2cccs2)c1 (configuration not stated),·,2.0
Cc1c(C)[n+]([O-])c2ccc3c(non3O)c12,4.4,9.0
CCOC(=O)Cc1csc(N2CCOCC2)n1,·,25.0
CCCn1c(=O)c(C#N)cn(C2CC2)c1=O,1.7,·

# Single entries from the list.
# S aureus helic, `CCCc1ccc(C(=O)C(C)OC(=O)C2=NNC(=O)CC2)cc1` (configuration not stated) → 44.0
# S aureus helic, `Cc1ccc2nc3c(c(N)c2c1)CCN3c1ccccc1` → -5.0

# Other entries:
SMILES,MgrA DNA FP,S aureus helic
CC1=NN(c2ccc(C(=O)O)cc2)C(=O)C1,-3.8,9.0
CC1=C(C(=O)Nc2ccccc2)C(c2ccccc2)C2=C(N1)c1ccccc1C2=O (configuration not stated),-0.5,·
CC(=O)Nc1ccc(N=Cc2nc(-c3ccccc3Br)oc2O)cc1,3.9,·
O=C1Nc2ccccc2C12NCCc1c2[nH]c2ccccc12 (configuration not stated),-3.9,18.0
COc1cc(OC)c(OC)cc1/C=C1\N=C(c2ccc(OC)c([N+](=O)[O-])c2)OC1=O,0.0,·
CCSc1nc2ccccc2n1S(=O)(=O)c1ccccc1,4.5,10.0
NC(=O)N1CCCC1C(=O)O (configuration not stated),·,5.0
c1ccc(NCc2nc3ccccc3n2CCOc2ccccc2)cc1,·,5.0
Cc1cccc(-n2ncc3c(=O)[nH]c(SCC(=O)NCCC4=CCCCC4)nc32)c1,·,-4.0
Cc1ccc(NC(=O)CCn2cnc3ccccc3c2=O)cc1C,-2.6,0.0
S=C(SCc1cc(Cl)cc2c1OCOC2)N1CCSCC1,-2.7,·
CNC(=O)NC1CCCCc2sccc21 (configuration not stated),-0.2,5.0
O=C(CC12CC3CC(CC(C3)C1)C2)Nc1ccc2c(c1)COC2=O,-1.8,3.0
CCc1ccc2[nH]c(=O)c(CN(CCCN3CCOCC3)C(=S)NC)cc2c1,2.9,-3.0
CCOC(=O)CCC1(CCC(=O)OCC)c2ccccc2-c2nc3ccccc3cc21,-0.7,14.0
O=C1c2ccccc2-c2n[nH]c(=O)c3ccc(N4CCCC4)c1c23,·,7.0
COc1ccc(CCn2cnc3sc4c(c3c2=N)CCCC4)cc1OC,2.2,1.0
C=CCN(CC=C)Cc1c(C)[nH]c2ccc(OC)cc2c1=O,·,-30.0
CC(CC(=O)O)CC(=O)Nc1ccc(F)cc1 (configuration not stated),-2.0,·
Cc1ccc(CS(=O)Cc2ccc(C(=O)NC3CCCCC3)o2)cc1 (configuration not stated),·,-3.0
Cc1cccn2c(=O)c(C=C(C#N)C#N)c(Sc3nc4ccccc4s3)nc12,·,-4.0
CCCCC/C=C\C/C=C\C/C=C\CCCCC(=O)O,0.0,·
COC(OC)c1cc(=O)[nH]c(SCc2ccc(Cl)cc2)n1,-1.1,·
O=C(Nc1ccc(-c2ccc(N3CCCC3)nn2)cc1)C(F)(F)F,·,13.0
O=C(Cc1ccc(Cl)cc1)OCc1nnc(-c2ccccc2)o1,·,4.0
CCN(CC)S(=O)(=O)c1ccc(/C(O)=C2\C(=O)C(=O)N(CCOC)C2c2ccccc2F)cc1 (configuration not stated),3.0,7.0
CC(=NCc1ccc(F)cc1)c1ccccc1O,1.1,·
Cc1ccc2c(c1)sc(=NC(=O)C(C)C)n2C,·,-5.0
Cc1nn(Cc2ccccc2)c2sc(C(=O)OCC(=O)N(C)C)cc12,·,7.0
COC(=O)Cc1ccc(Oc2ncc(C(F)(F)F)cc2Cl)cc1,0.6,·
CC(=O)Nc1c(OC(C)=O)ccc2c(C)cc(=O)oc12,6.3,6.0
O=C(Cn1c(-c2cccs2)cc2ccccc21)NC1CCCCC1,3.2,5.0
CN(C)c1nc(-c2ccccc2O)nc2ccccc12,·,-6.0
Cc1cccc(OCC(=O)Nc2ccc(S(N)(=O)=O)cc2)c1C,3.8,-9.0
COc1ccc(OCC(O)CNS(=O)(=O)c2ccc(-c3ccccn3)s2)cc1 (configuration not stated),·,21.0
CCOc1ccc(Oc2cc(NC(=O)c3cnn4c3NC(c3cccs3)CC4C(F)(F)F)cc([N+](=O)[O-])c2)cc1 (configuration not stated),-0.5,·
CCN(C(=O)Cn1cnc2sccc2c1=O)C1CCS(=O)(=O)C1 (configuration not stated),·,0.0
FC1(F)C2C3C=CC(O3)C2C1(F)F (configuration not stated),·,9.0
Cc1nn(C)c(C)c1/C=N/NS(=O)(=O)c1ccccc1,·,19.0
Cc1cc(C)cc(NC(=O)c2oc3c(c2C)-c2[nH]ncc2CC3)c1,-0.8,14.0
CC(C)c1nc2ccc(N)cc2s1,4.6,-5.0
CCS(=O)(=O)Nc1cc2c3c(n(S(=O)(=O)CC)c2cc1C)CCC3,-2.7,1.0
COCCNC(=O)Nc1ccc(F)cc1,-1.4,10.0
O=C(CCCO)Nc1ccc2c(c1)OCCO2,-2.4,·
CCOC(=O)CN1C(=O)S/C(=C/c2cn(CC(N)=O)c3ccccc23)C1=O,-3.0,12.0
C#C[C@]1(O)CCC2C3CCc4cc(OC)ccc4C3C(C)CC21C (some centres not stated),2.3,·
CN(C)Cc1c(C#N)c2ccccc2n1C,-1.7,2.0
O=c1[nH]cnc2c1cnn2-c1ccc(C(F)(F)F)cn1,-1.2,0.0
C/C(=N\O)c1csc(-c2snnc2C)n1,1.2,·
Cc1cc(C(=O)CN2c3cccc4cccc(c34)S2(=O)=O)c(C)n1C,·,7.0
Cc1nc2ccccc2nc1Oc1ccc(Cl)c(F)c1,-0.3,·
Cc1cc(C)nc(Nc2ccc(C(=O)OCC(C)C)cc2)n1,1.4,2.0
CC(C)(CNC(=O)/C=C/c1ccc(Br)cc1)N1CCOCC1,·,14.0
C/C(=N\NC(=O)CSc1nnc(SCc2ccccc2)s1)c1ccco1,·,29.0
Cn1ncc(C(=O)O)c1C(F)(F)F,-4.8,·
CC1Cc2ccccc2N1C(=O)c1cc2ccccc2oc1=O (configuration not stated),3.6,-5.0
CCN(Cc1ccc(/C=C2\C(=O)Nc3ccccc32)o1)S(C)(=O)=O,8.3,14.0
Cc1cccc(C(=O)Nc2cc(-c3ccccc3)no2)c1,·,-24.0
COc1ccc2c(c1)CCCN2C(N)=O,-1.9,16.0
O=C(c1ccc(-n2cccn2)cc1)N1CCc2ccccc2C1,-1.6,·
# (continued)
SMILES,MgrA DNA FP,S aureus helic
CC(C)N=Cc1c(Cl)nc2sccn12,0.5,·
CN(C)C(=O)c1ccc(N)cc1,·,19.0
Cc1ccc(C)c(N2CCN(S(=O)(=O)c3ccc4nc(-c5ccccc5)[nH]c4c3)CC2)c1,-0.8,-2.0
COC(=O)C(NC(=O)c1ccc(S(=O)(=O)N2CCOCC2)cc1)C(C)C (configuration not stated),3.0,7.0
Cc1cc2c(c(=O)[nH]1)C(c1ccc(C(C)C)cc1)C(C#N)=C(N)O2 (configuration not stated),-2.2,14.0
c1ccc(-n2cnnc2SCc2cn3ccsc3n2)cc1,·,3.0
CN(Cc1ccccc1)C(=O)CN(c1cccc(F)c1)S(C)(=O)=O,1.1,8.0
Cc1c(OCc2cccc(OC(F)(F)F)c2)ccc2c1OC(C)(C)CC2=O,-1.1,·
Cc1ccc2[nH]c(=O)c3cc(C(=O)N(C)c4ccccc4)sc3c2c1,·,11.0
Cc1cc2cc(CNC(=O)Cc3cccs3)ccc2[nH]1,·,13.0
CCc1ccc(OCC(=O)OCCN2CCCC2=O)cc1,-0.2,1.0
COc1ccc2nc(C)cc(NCC3CCCO3)c2c1 (configuration not stated),·,14.0
CCOc1cc(C(C#N)N2CCOCC2)ccc1OC (configuration not stated),·,-8.0
CC(C)(C)C(=O)c1sc2nc3c(c(-c4cccs4)c2c1N)CCC3,1.4,4.0
CC(C)c1cccc(C(C)C)c1OCCOCCN1CCNCC1,2.9,1.0
CCN(CC)C(=O)Cn1c(=O)n(-c2ccccc2)c(=O)n1CC(=O)N(CC)CC,·,9.0

# Not all compounds are listed, so the mix of outcomes need not match the whole.
